MARV entry inh: qHTS for inhibitors of binding or entry into cells for Marburg Virus. Marburg virus pseudotyped entry inhibition, cell reporter; control for the full effect not named in the record; about a third of the inactives were read at about 46 µM. Potency, µM (doses to about 37.8 µM), for inactives: top-dose activity change, negative = inhibition, hits mostly inhibitors. hit rate 1.8% among 300,000. AID 540276, 2011; active = well fitted inhibition curve with a large enough effect; inconclusive = small, poorly fitted or top-dose-only effect, or effect the other way; inactive = flat fitted curve, though single readings scatter; tested in HEK293 cells; about a fifth of its hits are not listed in these tables; note: % is set by controls: 0 for no effect and ±100 for the full control effect; luciferase read-out
Lassa entry inh: qHTS for Inhibitors of binding or entry into cells for Lassa Virus | Lassa virus pseudotype entry inhibition, cell reporter; control for the full effect not named in the record | Potency, µM (series often up to 37.9 µM), for the others: top-dose activity change, negative = inhibition, hits mostly inhibitors | hit rate 1.2% among 300,000 | AID 540256, 2011; active means well fitted inhibition curve with a large enough effect; inconclusive means small, poorly fitted or top-dose-only effect, or effect the other way; inactive means flat fitted curve, though single readings scatter; tested in HEK293 cells; note: % is set by controls: 0 for no effect and ±100 for the full control effect; nearly all actives have a fitted effect of over 50% in size; luciferase read-out
Cruzain inh Det: qHTS Assay for Promiscuous and Specific Inhibitors of Cruzain (with detergent); purified cruzain, Z-FR-AMC fluorescence, 0.01% Triton; hit rate 0.43% among 200,000; Potency, µM, inactives show max response, negative = inhibition, hits mostly inhibitors;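 note: plate controls were neutral wells for no effect and buffer without enzyme for full effect; nearly all actives have a fitted effect of over 40% in size; top concentration of the series not given in the record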
Target sequence (P25779 123-467 limits assumed): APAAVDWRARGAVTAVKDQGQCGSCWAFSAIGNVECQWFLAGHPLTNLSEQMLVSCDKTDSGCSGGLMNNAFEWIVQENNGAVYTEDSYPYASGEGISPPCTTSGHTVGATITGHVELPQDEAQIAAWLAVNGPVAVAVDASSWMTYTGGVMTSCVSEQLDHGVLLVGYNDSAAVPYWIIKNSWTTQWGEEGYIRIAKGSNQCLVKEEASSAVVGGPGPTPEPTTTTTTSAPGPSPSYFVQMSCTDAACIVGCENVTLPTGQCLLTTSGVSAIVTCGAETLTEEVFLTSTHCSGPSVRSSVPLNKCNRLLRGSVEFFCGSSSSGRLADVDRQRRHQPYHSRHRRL
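Z-FR-AMC hydrolysis (2 uM substrate) by cruzain (1.5 nM) monitored kinetically at ex 360/em 450 nm after 15 min room-temperature compound exposure; 0.01% Triton X-100, pH 5.5, 5 mM DTT.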
Cruzain noTriton: qHTS Assay for Promiscuous and Specific Inhibitors of Cruzain (without detergent); Cruzipain (Trypanosoma cruzi), P25779; purified cruzain, Z-FR-AMC fluorescence, no detergent; Potency, µM, inactives show max response, negative = inhibition, actives largely listed as inhibitors; hit rate 2.3% among 200,000; AID 1476, 2009;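 note: plate controls were enzyme without inhibitor for no effect and buffer without enzyme for full effect; nearly all actives have a fitted effect of over 40% in size; top concentration of the series not given in the record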
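Detergent-free condition (0.00005% Triton X-100) in acetate buffer pH 5.5 with DTT. 1.5 nM enzyme and compound were pre-mixed 15 min, then 2 uM Z-FR-AMC substrate added; reaction progress from fluorescence change between first and third reads (60 s).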
2A StopGo: High Throughput Screening for Foot and Mouth Disease Virus Antivirals; human cells with a luciferase reporter of 2A StopGo recoding; control for the full effect not named in the record; Potency, µM (titrated, usually from 57.9 µM), for inactives: at the highest dose signal change, negative = less light; hit rate 1.2% among 410,000; active = well fitted falling curve with a large enough effect; inconclusive = small, poorly fitted or top-dose-only effect; inactive = no such curve, though single readings can be large or run the other way; tested in HEK293T cells; note: % is set by controls: 0 for no effect and ±100 for the full control effect; nearly all actives have a fitted effect of over 45% in size; luciferase light after 4 h
NS1 inh: qHTS Assay for Inhibitors of Influenza NS1 Protein Function. S. cerevisiae slowed by influenza A NS1, growth recovery by OD600. Potency, µM (doses to about 46.1 µM), for the others: at the top dose activity, positive = more growth. hit rate 0.4% among 270,000; active means well fitted rising curve with a large enough effect; inconclusive means small, poorly fitted or top-dose-only effect; inactive means no such curve, though single readings can be large or run the other way; note: nearly all actives have a fitted effect of over 50% in size
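Compounds were scored for reversing the slow growth caused by influenza A NS1 in S. cerevisiae, measured by optical density at 600 nm. Assay medium contained 2% galactose at pH 6.0; NS1-free yeast of the same strain were the positive control.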
SARS PLP yeast: qHTS of Yeast-based Assay for SARS-CoV PLP | S. cerevisiae expressing SARS-CoV PLpro, growth rescue; control for the full effect not named in the record | hit rate 0.19% among 330,000 | Potency, µM (titrated, usually from 32.9 µM), for the others: top-dose activity, positive = growth rescue; active means well fitted rising curve with a large enough effect; inconclusive means small, poorly fitted or top-dose-only effect; inactive means no such curve, though single readings can be large or run the other way; note: 0% is about no effect; nearly all actives have a fitted effect of over 55% in size; growth read by luminescence after 48 h
RE007 growth inh: qHTS Assay for Inhibitors of the HIV-1 protein Vpr. S. pombe RE007 Vpr strain, BacTiter-Glo ATP luminescence, 24 h; control for the full effect not named in the record. Potency, µM (highest dose often 92.2 µM), for inactives: at the highest dose activity change, negative = less growth. hit rate 0.21% among 360,000; active = well fitted falling curve with a large enough effect; inconclusive = small, poorly fitted or top-dose-only effect; inactive = no such curve, though single readings can be large or run the other way;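 note: % is set by controls: 0 for no effect and ±100 for the full control effect; nearly all actives have a fitted effect of over 50% in size; the assay follows cell death caused by Vpr and the record does not say whether a fall means rescue or toxicity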
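Fission yeast RE007 carrying one integrated HIV-1 vpr copy, seeded at OD 0.01 in PMG+AL medium with 23 nL pinned compound. Grown 24 h at 30 degrees; viability read by BacTiter-Glo luminescence after 5 min.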
Starred values were filed as active, the others as inactive; ? = inconclusive; · = no result given; & = joins results of further samples; [ ] = remark or other dose. Unless noted, calls come from the whole dose curve; as a rule, active = well fitted curve in the direction sought with a large enough effect; inconclusive = small, poorly fitted or top-dose-only effect, or another doubt; inactive = no such curve, though single readings can be large; an effect the other way counts as inactive or inconclusive. Potency is the fitted concentration of half-maximal effect. Not a hit list; about 4.7% have a hit in one of these screens.

Values run as follows: 2A StopGo | Cruzain noTriton | RE007 growth inh | Cruzain inh Det | Lassa entry inh | MARV entry inh | NS1 inh | SARS PLP yeast
> CCOc1ccc(CC(=O)NCc2cn3c(C)csc3n2)cc1
  -16% | -7% | 4% | -3.1% | · | · | 5% | 3%
> Clc1ccc(Cl)c(OCc2cc(-c3ccccc3Cl)on2)c1
  28% | 0% | -13% | 1.9% | ? | ? | -7% | 8%
> CCOc1nc(OCC)nc(N2CCC(C)CC2)n1
  0% | 10% | 54% | -3.5% | 19% | -10% | -17% | -18%
> COc1ccc(C2/C=C\CN(C(=O)C3CCCC3)[C@H](Cc3ccccc3)C(=O)N2Cc2ccc(F)cc2)cc1 (some centres undefined)
  -18% | · | 0% | · | · | · | 9% | -1%
> Cc1cnc(C(=O)Nc2ccc(C(=O)N(C)C3CCCCC3)cc2)cn1
  · | 3% | · | 2.3% | · | 6% | 1% | 4%
> CCC(=O)NCCc1c[nH]c2ccccc12
  8% | 9% | 17% | 0.7% | 11% | -1% | -2% | ·
> CCOC(=O)c1[nH]c2ccc(OC)cc2c1NC(=O)CN1CCc2ccccc2C1
  ? | 5% | 27% | -8.7% | ? | ? | -74% | -13%
> O=C(O)c1cc(O)ccc1-c1ccc(O)cc1
  -20% | 3% | 2% | 5.3% | -1% | 19% | 0% | 6%
> O=C(O)C1CCCCC1C(=O)Nc1ccccn1 (centres undefined)
  4% | 5% | 24% | 1.1% | 18% | 0% | -9% | -4%
> Cc1cc(CNCc2c(C(=O)N3CCCCCCC3)nc3ccc(Cl)cn23)nn1C
  -1% | · | -9% | · | 15%[46.1 µM] | 4%[46.1 µM] | 3% | -1%
> O=C(c1cc(S(=O)(=O)N2CCOCC2)ccc1F)N1CCC2(CC1)OCCO2
  -17% | -3% | -22% | 5.3% | -4% | 1% | 2% | 1%
> Cc1oc(-c2ccccc2F)nc1CS(=O)CC(=O)N1CCC2(CC1)OCCO2 (centres undefined)
  6% | 3% | 11%[3.69 µM] | 4.3% | -11% | -7% | ? | 3%
> O=C1CC(c2ccc(Br)cc2)c2c(c3ccccc3oc2=O)O1 (centres undefined)
  -1% | -18% | · | -4.8% | -9%[46.1 µM] | · | · | ·
> CCc1ccccc1NC(=O)Nc1ccc2snnc2c1
  -1% | -8% | · | -11% | ? | 9%[46.1 µM] | · | ·
> CC1CCN(CC(O)COCCC23CC4CC(CC(C4)C2)C3)CC1 (centres undefined)
  · | 4% | 12% | 4.7% | ? | 6.5µM* | -7% | 0%
> CCOC(=O)c1nnc(-c2ccccc2)[nH]c1=O
  41%[activator] | · | -7% | · | · | · | 3% | 0%
> CCCCC(c1nnnn1CCOC)N1CCN(c2cccc(OC)c2)CC1 (centres undefined)
  -20% | -7% | 2% | 3.4% | -7% | ? | 7% | -1%
> COc1ccc(NC(=O)C2CC(c3cc(OC)c(OC)c(OC)c3)=NO2)cc1OC (centres undefined)
  -3% | 8% | -9% | 0.7% | -1% | -22% | -7% | -2%
> CCOc1ccccc1N1CCN(C(=S)NCc2ccc(Cl)cc2)CC1
  3% | · | 3% | · | · | · | -56% | -5%
> CC1Cc2ccccc2N1Cc1cccc([N+](=O)[O-])c1 (centres undefined)
  -17% | · | -4% | · | -2% | ? | ? | 0%
> Cc1ccc2nc(SCC(=O)c3c[nH]c4ccccc34)[nH]c2c1
  8% | · | -11% | · | ? | -14%[46.1 µM] | 6% | 1%
> Cc1cccc(CCNS(=O)(=O)c2ccc(S(=O)(=O)NC3CCCC3)cc2)c1
  -12% | 4% | 12% | -4.8% | ? | -23% | 7% | 6%
> COc1cc2[nH]c3c(OC)ncnc3c2cc1OC
  23% | · | -9% | · | -10% | ? | -2% | -5%
> O=C1NC(=O)/C(=C/c2cc3c(cc2Br)OCO3)S1
  16% | · | -20% | · | 16%[46.1 µM] | 31%[46.1 µM] | -92% | -7%
> Cc1ccc(-c2cccc(NC(=O)C3C4C=CC(C4)C3C(=O)O)c2)o1 (centres undefined)
  7% | -12% | 0% | 3.2% | · | -2% | -6% | -3%
> COCc1[nH]nc2c1C(c1sccc1C)C(C#N)=C(N)O2 (centres undefined)
  ? | 16% | 13% | 2.3% | -3% | -12% | -6% | 2%
> O=C(NNC(=S)Nc1ccc(Br)cc1)c1cccnc1
  88%[activator] | · | -19% | · | -4%[46.1 µM] | 11%[46.1 µM] | -22% | -2%
> Cn1cc(C(c2ccccc2)c2ccc(Cl)s2)c2ccccc21 (centres undefined)
  -11% | ? | · | -3.5% | 25%[46.1 µM] | 8%[46.1 µM] | · | ·
> CSc1nc(O)c(N=Nc2ccc(F)cc2F)c(=O)[nH]1
  -14% | · | 25µM* | · | · | · | -37% | -8%
> COc1ccccc1CN(CC(=O)NCC1CCCO1)C(=O)CNS(=O)(=O)c1ccc(C)cc1 (centres undefined)
  7% | 9% | 2% | -6.8% | 3% | ? | 1% | 1%
> Cc1ccccc1N/N=C/c1ccc(N2CCOCC2)cc1
  31%[activator] | 1% | 7% | -3.0% | 23% | 22% | -5% | -1%
> O=C(CSc1nc2ccccc2c(=O)n1-c1ccc(F)c(Cl)c1)Nc1cccc(S(=O)(=O)N2CCOCC2)c1
  2% | ? | -2% | -5.7% | ? | ? | ? | 3%
> Cn1ncc(C#N)c1/N=C/N1CCCC1
  -23% | -8% | -6% | 5.2% | -5% | -3% | 14% | -9%
> Cc1ccc(S(=O)(=O)N2CC=C(C(=O)NCc3ccccc3)CC2)cc1
  -32% | -2% | -1% | -2.9% | -5% | 2% | -18% | 3%
> Cn1cnnc1Sc1ccc(C(=O)OCC(=O)Nc2ccccc2)cc1[N+](=O)[O-]
  ? | -2% | -4% | -3.9% | 3% | -1% | -4% | -7%
> O=C(N=C1SC2CS(=O)(=O)CC2N1Cc1ccccc1)C1CCCCC1 (centres undefined)
  4% | · | 3% | · | · | · | 14% | -1%
> CCN(C(=O)CSc1nc2ccccc2n1CC(=O)N1CCCC(C)C1)c1ccccc1 (centres undefined)
  1% | -4% | · | -1.3% | 21%[46.1 µM] | · | · | ·
> COc1ccc(NC(=O)C/C(C)=N/NC(=O)COc2ccc(OC)cc2)cc1
  -11% | · | -21% | · | 19%[46.1 µM] | 23%[46.1 µM] | -14% | -6%
> Cc1nc2nc(CSc3nnc(C)s3)cc(=O)n2[nH]1
  8%&19% | -3% | -9%&16% | 4.2% | ? | 4%[46.1 µM] | 7.9µM* | 1%
> COc1ccc(C(C(=O)NC(C)C)N(C(=O)CCC(=O)Nc2nccs2)c2ccccc2F)cc1 (centres undefined)
  20% | · | 1% | · | -11% | ? | 2% | 0%
> CCOC(=O)C1CCN(S(=O)(=O)c2ccc3c(c2)CC(C)N3C(=O)C2CCC2)CC1 (centres undefined)
  ? | · | -2% | · | · | · | -24% | -4%
> CN1CCN(C2CCCCC2NS(=O)(=O)c2ccccc2)CC1 (centres undefined)
  1% | · | -5% | · | 12%[46.1 µM] | 7%[46.1 µM] | -2% | -4%
> COc1ccc2c(c1)CC1(CN2C)C(=O)NC(=O)N(CCc2ccccc2)C1=O (centres undefined)
  -16% | ? | 14% | 0.0% | -27% | 6% | 11% | 4%
> CCCCOc1ccc(C(=O)NC)cc1
  20% | 1% | 5% | -1.1% | ? | 10% | -32% | 0%
> COc1cc(C(=O)n2cnc3ccccc32)c([N+](=O)[O-])cc1OC
  3% | · | -11% | · | · | · | 23% | 2%
> Cc1ccc(NC(=O)C(=O)NN)cc1
  -10% | · | -8% | · | · | · | -2% | -1%
> CC(C)CC(=O)Nc1cccc(-c2nc3ccccc3[nH]2)c1
  20%&29% | 4% | -4% | -4.2% | 13%[46.1 µM] | · | 10% | 0%
> CCc1ccc(-n2c(=O)c3c4c(sc3n(Cc3ccccc3C#N)c2=O)CCC4)cc1
  -24% | 1% | · | -2.4% | 14%[46.1 µM] | -11%[46.1 µM] | · | ·
> COc1ccc(OCCCn2c(=O)oc3ccc(C)cc32)cc1
  -11% | -3% | · | -7.0% | -4%[46.1 µM] | 1%[46.1 µM] | · | ·
> Cn1ncc(Cl)c1C(=O)Nc1cc(C(F)(F)F)ccc1F
  0% | -14% | -1% | -1.7% | ? | 21% | -1% | -15%
> NC(=O)CCn1cnc2ccccc21
  -7% | · | 0% | · | 3% | 13%[46.1 µM] | 1% | -1%
> Cc1cccc(NC(=O)c2ccc(C(=O)Nc3cccc(C)c3)nc2)c1
  -10% | -17% | -7% | -4.5% | ? | ? | 4% | -4%
> Cc1cc(NC(=O)COC(=O)c2c(C)c(C)c(C)c(C)c2C)no1
  -13% | · | 8% | · | -11% | ? | · | 11%
> N#Cc1c(C#N)c(SSc2c(C#N)c(C#N)c(N)n2-c2ccccc2)n(-c2ccccc2)c1N
  40µM* | · | -8% | · | 21% | ? | · | ·
> CCCCN1C(=O)/C(=C2\SC(N3CCCCC3)=NC2=O)c2ccccc21
  7% | ? | 28% | -13% | 11% | 2% | -74% | -11%
> COc1ccc(-c2nnc(SCC(=O)NCc3ccco3)o2)cc1
  · | -1% | -6% | 3.1% | 5% | 23% | -10% | 0%
> CSc1ccccc1NC(=O)CN(C)CC(=O)Nc1ccc(Cl)cc1F
  0% | 10% | -7% | -10% | -7% | ? | -21% | -44%
> CC(=O)N1CCN(S(=O)(=O)c2cccc(C(=O)NNC(=O)Cn3ccc(C(F)(F)F)n3)c2)CC1
  -25% | · | 12% | · | 2% | 0%[46.1 µM] | · | 0%
> Cc1cc(C)n(-c2ccc(C(=O)N3CCc4ccccc43)cc2)n1
  -20% | 1% | 11% | -4.8% | 18% | -17% | -53% | 3%
> Cc1ccc(S(=O)(=O)N(C)C)cc1NC(=O)COC(=O)Cc1ccccc1F
  0% | · | -3% | · | -3% | -3% | · | 2%
> Cc1ccc(NC(=O)c2cccc(S(=O)(=O)N3CCCCC3)c2)cc1
  -30% | · | 13% | · | ? | -5%[46.1 µM] | -1% | 0%

Screens: PubChem, National Center for Advancing Translational Sciences (NCATS)
